# Assay outcomes: PubChem BioAssay, several laboratories
# LANA-H2A inh = blockers of LANA interaction with H2A/H2B – biochemical, FP readout, HTS, primary screen; Protein LANA1 (Human herpesvirus 8 type P (isolate GK18)), Q9QR71; cell-free LANA-H2A/H2B peptide, fluorescence polarization; inhibition, % (no concentration beside the values); actives 0.6% (n = 320,000); AID 2629, 2010; in the data active = inhibition mostly above about 10%, no sharp cut-off; inactive = mostly below about 6.7%;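 also: stock transfer was 7.5 nL into about 10 µL; 0% = median of vehicle wells and 100% = median of positive control wells; one replicate is shown; the record names a cut of 25% in any replicate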
# Target sequence (Q9QR71 whole entry, looked up): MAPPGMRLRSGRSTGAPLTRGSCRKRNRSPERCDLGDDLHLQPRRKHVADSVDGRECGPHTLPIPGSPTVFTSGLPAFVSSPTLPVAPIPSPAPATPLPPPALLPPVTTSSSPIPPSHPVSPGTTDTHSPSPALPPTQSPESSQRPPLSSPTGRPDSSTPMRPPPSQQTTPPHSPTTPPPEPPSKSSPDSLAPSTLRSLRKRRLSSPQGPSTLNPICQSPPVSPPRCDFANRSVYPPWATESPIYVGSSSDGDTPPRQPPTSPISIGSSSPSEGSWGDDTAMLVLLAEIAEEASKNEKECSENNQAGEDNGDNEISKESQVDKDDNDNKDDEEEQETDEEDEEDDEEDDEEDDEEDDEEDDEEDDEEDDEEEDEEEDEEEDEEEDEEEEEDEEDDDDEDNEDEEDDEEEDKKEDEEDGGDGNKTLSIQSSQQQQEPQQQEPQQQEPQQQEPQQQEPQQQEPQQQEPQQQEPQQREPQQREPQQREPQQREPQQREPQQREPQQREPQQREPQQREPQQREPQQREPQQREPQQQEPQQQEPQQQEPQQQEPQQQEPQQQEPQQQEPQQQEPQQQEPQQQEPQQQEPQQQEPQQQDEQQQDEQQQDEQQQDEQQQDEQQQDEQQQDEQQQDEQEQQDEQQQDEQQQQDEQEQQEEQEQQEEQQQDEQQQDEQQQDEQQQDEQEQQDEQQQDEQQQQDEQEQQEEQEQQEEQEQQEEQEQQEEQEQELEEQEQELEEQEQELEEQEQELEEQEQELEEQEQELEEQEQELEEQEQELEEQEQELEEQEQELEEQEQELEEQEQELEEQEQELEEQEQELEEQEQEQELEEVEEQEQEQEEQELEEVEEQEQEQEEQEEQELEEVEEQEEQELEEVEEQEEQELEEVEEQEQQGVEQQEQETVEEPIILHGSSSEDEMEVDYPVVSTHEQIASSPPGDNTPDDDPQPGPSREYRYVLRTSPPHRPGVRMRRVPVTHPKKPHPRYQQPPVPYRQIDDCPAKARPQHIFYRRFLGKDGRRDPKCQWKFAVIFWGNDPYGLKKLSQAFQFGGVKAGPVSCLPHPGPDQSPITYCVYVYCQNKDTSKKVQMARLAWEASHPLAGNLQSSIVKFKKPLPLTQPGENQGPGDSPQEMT
# B2AR ag = beta2AR agonists driving receptor internalization, primary screen, cell-based, FAP fluorogen, flow cytometry; Am2.2-beta2AR cells; reference of the scale not given here; response, % (test concentration not listed); actives 0.43% (n = 340,000);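 active = response above a set limit, near 3 SD of response in nonfluorescent compounds, cut at about 42% in these data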;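 also: stock transfer was 100 nL into about 11 µL; a reference agonist was the positive control; negative values mostly stem from fluorescent compounds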
# Beta cell apopt = inhibitors of cytokine-induced beta cell apoptosis, primary screen, luminescence; INS-1E cytokine-induced death, ATP luminescence, 48 h; percent of positive-control rescue, neutral wells zero; protection from apoptosis, % (concentration not given with the values); actives 0.8% (n = 300,000);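 active = all replicates at 75% or more, or half of them and the mean; inconclusive = half reach 75% but not the mean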;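 also: 0% = cytokine-treated negative control wells and 100% = positive control rescue; higher means more ATP so stronger rescue from cytokine killing; wells of about 40 µL received 100 nL stock; the first replicate is given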
# rRNA inh HTS = reduced GFP signal of wild-type E. coli, primary screen, bacterial rRNA inhibitor project, GFP/RFP fluorescence, OD600, single point. E. coli WT GFP vs humanized-ribosome RFP mutants, 24 h; active compounds read low; DMSO median 0, no signal -100. GFP signal change (wild-type ribosome), % (no concentration beside the values). actives 1.6% (n = 350,000). AID 720706, 2013;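 active = significant combined selectivity score with lowered wild-type GFP, culture density cut under 30%, mutant RFP and density less affected; inactive = any of these conditions unmet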; also: one replicate is shown; some compounds called inactive have numbers as strong as hits
# Calb FLC = C. albicans growth inhibition with fluconazole, primary screen, CaCi-2 strain, Alamar Blue fluorescence. growth inhibition, % (no concentration beside the values). C. albicans CaCi-2 (fluconazole-resistant clinical isolate) + fluconazole, 48 h. actives 0.57% (n = 300,000);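 active = most replicates above 75%; inconclusive = exactly half above 75%; inactive = most below 75%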;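 also: all wells also contain fluconazole at 8 µg/ml as a sub-toxic cotreatment; 0% = median of DMSO wells and 100% = median of geldanamycin control wells; wells of about 8 µL received 7.5 nL stock; the first replicate is given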
# Bfl-1 A1 inh = caspase 3/7 activation in MEF A1-2A-BIM cells, primary screen, A1 inhibitor project, cell-based, luminescence, HTS | actives 0.066% (n = 330,000) | caspase activation, % (no concentration beside the values) | Caspase-Glo 3/7 luminescence, 3 h; percent of clofoctol response, vehicle zero;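 active = over half of replicate activation scores above 10%, or exactly half above 10 with the replicate mean above 10; inconclusive = replicate mean below 10 yet half the replicates above 10; inactive = over half of replicates below 10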;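 also: wells of about 30 µL received 50 nL stock; many hits fall short of the cut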
# ALR H2O2 inh = inhibitors of human ALR sulfhydryl oxidase, primary screen, biochemical, H2O2 detection, HRP-luminol luminescence, single point; FAD-linked sulfhydryl oxidase ALR (Homo sapiens), P55789; purified ALR, DTT oxidation; inhibition, % (no concentration beside the values); actives 3.8% (n = 290,000); AID 485317, 2010;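 active = mean and each replicate at 75% or more; inconclusive = only one of the two met; inactive = neither met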;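 also: stock transfer was 7.5 nL into about 7.5 µL; 0% = neutral wells and 100% = wells with inactivated enzyme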
# T cruzi repl = inhibitors of intracellular T. cruzi growth, primary screen, luminescence, NIH3T3 host cells | actives 1.4% (n = 300,000) | inhibition, % (test concentration not listed) | AID 1885, 2009 | T. cruzi beta-gal in NIH3T3, 90 h;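 active = mean inhibition across valid replicates above about 55%, limit read from the data; inconclusive = mean below that limit but half or more replicates reach it; inactive = mean below it, under half of replicates reach it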;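 also: signal also drops with host cell toxicity which is not excluded here; 0% = plate median of DMSO wells and 100% = zero luminescence signal; higher percent means less beta-gal luminescence so fewer parasites; stock transfer was 50 nL into about 50 µL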
# rRNA inh HTS OD600 = also measured in rRNA inh HTS; calls as there; OD600 change, %; measured here: OD600 growth;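 optical density of the mix in the first replicate; 0 = DMSO median and -100 = no signal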
# rRNA inh HTS RFP = recorded beside rRNA inh HTS, whose call it bears; RFP signal change, %; measured here: RFP humanized mutant strains;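 first replicate; 0 = DMSO median and -100 = no signal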
# Starred values were filed as active, the others as inactive; ? = inconclusive; . = no result given.
molecule	LANA-H2A inh	B2AR ag	Beta cell apopt	rRNA inh HTS	rRNA inh HTS OD600	rRNA inh HTS RFP	Calb FLC	Bfl-1 A1 inh	ALR H2O2 inh	T cruzi repl
Cc1ccc(S(=O)(=O)N2CCC(C(=O)NCCCN3CCOCC3)CC2)cc1	-3.5	-6.9	-6.4	3.2	2.6	2.1	7.0	-0.5	-4.6	14.2
Fc1ccccc1NC(=S)NCc1ccc2c(c1)OCO2	-1.8	-0.8	-3.2	7.9	10.8	-7.1	6.7	0.2	.	8.2
Cc1ccc(NC(=O)C2CCCN(S(=O)(=O)c3cccs3)C2)cc1 (centres undefined)	0.3	-5.0	-6.3	.	.	.	29.6	-0.2	-13.2	13.9
COc1ccc(-n2nnc3c(=O)n(CC(=O)Nc4ccc5c(c4)OCCO5)cnc32)cc1OC	4.1	9.1	10.2	10.6	15.4	0.2	8.4	0.0	-5.6	-13.8
CC(=O)C1=C(O)C(=O)N(c2ccc(C)cc2)C1c1ccccn1 (centres undefined)	-3.1	0.1	-2.6	.	.	.	-3.7	-1.0	-14.6	-18.0
Cc1nn(C)c(=S)n1-c1ccc(Cl)cc1	3.9	-3.0	-3.7	7.7	8.6	0.1	-6.4	-2.2	.	-15.3
CCOC(=O)c1c(CN2CCN(Cc3ccccc3)CC2)n(C)c2cc(Br)c(OC)cc12	-1.2	7.9	3.8	.	.	.	4.4	0.0	-3.7	31.8
CC(C)(C)C(=O)NC(=S)NNC(=O)c1sc2ccccc2c1Cl	-4.5	7.9	66.8	.	.	.	88.3*	0.7	23.2	42.7
CCC(C)Sc1ccc([C@H]2N[C@@](C)(C(=O)OC)[C@H]3C(=O)N(CC)C(=O)[C@@H]23)cc1 (some centres undefined)	2.9	10.4	0.3	-1.1	-6.1	-0.6	-6.4	-0.6	-0.1	19.3
COc1ccc(CCN2C(=O)N[C@@H](C(C)C)C2=O)cc1	1.4	-2.3	-3.3	10.7	7.7	-0.5	7.6	-0.4	.	-1.6

# Next part, overlapping the part above by 4 compounds.
molecule	LANA-H2A inh	B2AR ag	Beta cell apopt	rRNA inh HTS	rRNA inh HTS OD600	rRNA inh HTS RFP	Calb FLC	Bfl-1 A1 inh	ALR H2O2 inh	T cruzi repl
CCOC(=O)c1c(CN2CCN(Cc3ccccc3)CC2)n(C)c2cc(Br)c(OC)cc12	-1.2	7.9	3.8	.	.	.	4.4	0.0	-3.7	31.8
CC(C)(C)C(=O)NC(=S)NNC(=O)c1sc2ccccc2c1Cl	-4.5	7.9	66.8	.	.	.	88.3*	0.7	23.2	42.7
CCC(C)Sc1ccc([C@H]2N[C@@](C)(C(=O)OC)[C@H]3C(=O)N(CC)C(=O)[C@@H]23)cc1 (some centres undefined)	2.9	10.4	0.3	-1.1	-6.1	-0.6	-6.4	-0.6	-0.1	19.3
COc1ccc(CCN2C(=O)N[C@@H](C(C)C)C2=O)cc1	1.4	-2.3	-3.3	10.7	7.7	-0.5	7.6	-0.4	.	-1.6
CN(C)S(=O)(=O)N1CCCN(S(=O)(=O)N(C)C)CC1	2.5	-3.7	-1.9	.	.	.	0.4	-0.9	.	-13.5
CSc1cccc(NC(=O)C2CCN(S(=O)(=O)c3ccc4c(c3)NC(=O)CO4)CC2)c1	2.8	-4.6	2.0	-4.1	-6.8	0.7	-15.9	-0.4	-25.5	3.3
Cc1sc2ncn(CC(=O)NCCCC(=O)N3CCN(c4ccccc4)CC3)c(=O)c2c1C	2.6	-0.4	3.2	.	.	.	-0.2	-0.6	36.4	15.0
CCCC(=O)Nc1ccccc1-c1nnc(SCC)[nH]c1=O	2.0	3.5	-3.4	0.2	-0.4	-4.5	-4.0	-0.2	.	-0.6
CCC(C)Sc1nc2c(cnn2-c2ccccc2)c(=O)[nH]1 (centres undefined)	2.9	1.6	-1.6	2.8	5.3	-2.6	1.2	-1.0	.	16.0
Cc1cc2cc(C(c3nnnn3C(C)(C)C)N(Cc3ccco3)CC3CCCO3)c(=O)[nH]c2cc1C (centres undefined)	-0.3	2.4	1.2	.	.	.	13.2	-0.7	8.4	7.4
Cc1ccc(OCC(=O)Oc2cccc(C)c2C)cc1	-3.6	6.4	-11.3	6.0	6.8	-2.3	-6.3	-0.3	-1.2	-10.4
COc1ccccc1CC(=O)NC1CCN(Cc2ccccc2)CC1	0.2	-4.5	6.8	5.7	10.6	0.6	8.8	0.5	1.2	27.3
O=C(COC(=O)c1ccccn1)Nc1ccccc1Cl	-3.3	9.2	0.7	.	.	.	-4.0	0.4	-5.7	-14.9
C=C1C(C(=O)Nc2ccc(OC)cc2)C1C(=O)Nc1ccc(OC)cc1 (centres undefined)	2.8	-6.2	-6.4	14.7	7.8	-3.0	-0.1	1.0	-0.6	-7.1

# The listing continues:
molecule	LANA-H2A inh	B2AR ag	Beta cell apopt	rRNA inh HTS	rRNA inh HTS OD600	rRNA inh HTS RFP	Calb FLC	Bfl-1 A1 inh	ALR H2O2 inh	T cruzi repl
CC(C)(CO)NCC(O)Cn1cc(C=O)c2ccccc21 (centres undefined)	0.4	4.3	0.5	.	.	.	1.9	0.0	.	-3.3
CC/C(=N/Nc1ccccc1C)c1cnnc(SC)n1	0.6	2.5	0.9	8.4	9.4	-2.6	1.7	0.7	-8.0	9.7
Cc1ccc(Sc2cnccc2C#N)cc1	-0.4	-2.1	-7.1	-2.6	-3.5	1.1	3.2	1.4	-2.0	10.4
COc1cc(OC)c(C(=O)O/N=C(\N)c2ccccn2)cc1OC	-2.4	-0.5	5.9	-1.2	5.1	0.8	5.0	0.9	-5.8	5.4
CCC(CO)NCc1cc(OC)c(OCC(=O)NCCc2ccccc2)cc1Br (centres undefined)	1.5	2.4	0.5	.	.	.	-1.8	-0.8	-2.2	7.3
CCOC(=O)N1CCN(C(=O)Nc2ccc(NC(=O)N3CCN(C(=O)OCC)CC3)cc2)CC1	1.5	2.4	5.4	29.8	19.6	2.0	-5.2	-0.4	-10.0	-22.5
CN(CC(=O)Nc1cccc(F)c1)C(=O)C1(c2ccccc2)CC1	-1.2	-0.4	6.0	13.6	10.0	1.9	.	1.0	-3.4	.
Cc1ccc(C(O)P(=O)(OCc2ccccc2)c2ccc(N(C)C)cc2)cc1 (centres undefined)	10.9*	-0.8	4.1	.	.	.	-1.3	0.0	.	5.2
COc1cccc(NC(=O)CSc2nnc(-c3ccco3)c(-c3ccco3)n2)c1	4.0	0.3	-6.9	-4.2	7.0	2.0	-1.0	-1.0	98.8*	-18.1
CC(NC(=O)CN(c1ccc(Cl)cc1)S(C)(=O)=O)c1ccccc1 (centres undefined)	3.1	-1.4	-2.1	-1.8	0.7	-2.2	-2.0	2.6	-0.9	-6.4

# The results go on.
Structure,LANA-H2A inh,B2AR ag,Beta cell apopt,rRNA inh HTS,rRNA inh HTS OD600,rRNA inh HTS RFP,Calb FLC,Bfl-1 A1 inh,ALR H2O2 inh,T cruzi repl
COc1ccccc1CNC(=O)CN1C(=O)C(C)N(c2ccc(C)cc2)C1=O (centres undefined),0.6,2.4,5.4,.,.,.,-1.3,0.1,1.4,0.4
COc1cc(C(=O)N[C@H](C(=O)NC2CCCc3ccccc32)C(C)C)cc(OC)c1OC (some centres undefined),-2.4,7.6,-1.0,6.5,8.5,-2.2,.,-1.1,-5.0,.
Cc1cc(=O)n2c(ccc3ccccc32)c1C#N,3.3,-0.3,-3.2,.,.,.,-4.0,0.2,-7.5,-5.9
Cc1ccc(S(=O)(=O)N(C)C)cc1NC(=O)c1sccc1Cl,7.5,-23.7,-6.8,9.9,0.4,-0.6,-14.3,0.6,.,12.1
CC(C)=CC(=O)Nc1nnc(C)s1,7.0,0.3,-7.7,.,.,.,?,2.8,-8.3,0.9
CCCC[C@@H]1CNC(=S)N1CCC12CC3CC(CC(C3)C1)C2,0.4,-6.4,29.6,15.6,7.2,-1.3,-11.9,0.3,-1.7,36.5
Cc1ccc(S(N)(=O)=O)cc1NC(=O)C(c1ccccc1)c1ccccc1,-2.9,0.6,-3.6,0.0,-3.0,-2.3,1.6,1.4,-13.0,0.1
CCCCCNC(=O)C(C)NS(=O)(=O)c1ccc(OC)cc1 (centres undefined),3.0,2.0,-18.1,.,.,.,5.1,0.0,-10.1,-11.0
COCCNC(=O)C1CCCN(c2ncccn2)C1 (centres undefined),-6.9,-6.5,-6.1,.,.,.,2.5,-0.3,-30.9,-14.6
COc1ccc(OC(=O)c2cccnc2)cc1,-3.8,0.2,-12.0,.,.,.,2.3,0.6,-4.0,-0.8
COC(C)(C)[C@]12CC(O)(c3ccccc3)ON1[C@H]1CCCCC1N2O (some centres undefined),-0.2,1.4,2.7,.,.,.,-11.6,0.1,-1.3,-3.0
Cc1c(C(=O)OCC(=O)NCCN2C(=O)CSC2=O)oc2c1ccc1ccccc12,2.3,3.0,-2.6,8.9,0.5,3.0,-11.5,-0.7,-20.4,1.7
O=C(NCCCN1CCCC1=O)c1ccc2c(c1)NC(=O)c1ccccc1S2,7.7,0.6,0.1,-2.1,3.1,-2.4,-1.7,-0.2,.,-1.2
CCn1c(C)cc(/C=C2/NC(=O)N(CC(=O)Nc3cccc(C)c3)C2=O)c1C,.,6.3,-1.6,.,.,.,-2.6,0.4,-0.1,9.3
Cc1ccc(NC(=S)Nc2ncccc2C)c(C)c1,-3.8,-4.3,-5.0,.,.,.,-10.7,-3.6,-56.6,17.5
COc1ccc(NC(=O)C(NC(C)=O)C(=O)NCc2ccccc2)cc1 (centres undefined),7.7,-0.8,-6.6,.,.,.,-4.9,-0.4,1.2,.
Cc1ccc2c(CSc3nnc(C4CC4)n3N)cc(=O)oc2c1,0.3,-3.8,.,.,.,.,-8.8,1.3,4.2,-8.5
CC(C)OCCCNC(=O)CN1CCN(Cc2ccc(Cl)cc2)C1=O,5.5,-5.5,-4.5,-0.6,3.6,-2.2,0.7,0.7,-6.3,-10.5

# A portion of the library (hit frequency here may not be typical).
